# Source: PubChem BioAssay
# VACV Venus inh = qHTS for Stage-Specific Inhibitors of Vaccinia Orthopoxvirus: Venus Reporter Primary qHTS. Vaccinia virus Venus reporter expression, fluorescence. Potency, µM (highest dose often 36.5 µM), for the others: at the highest dose activity change, negative = inhibition, actives largely listed as inhibitors. actives 0.46% (n = 330,000). AID 720580, 2013; active means well fitted inhibition curve with a large enough effect; inconclusive means small, poorly fitted or top-dose-only effect; inactive means no such curve, though single readings can be large or run the other way; tested in A549 cells; note: nearly all actives have a fitted effect of over 30% in size; inactives centre near -10
# Vaccinia mCherry = qHTS for Stage-Specific Inhibitors of Vaccinia Orthopoxvirus: mCherry Reporter Primary qHTS; Potency, µM (highest dose often 36.5 µM), inactives show at the highest dose activity change, negative = inhibition, usual class: inhibitors; Vaccinia virus mCherry reporter infection, fluorescence; about a quarter of the inactives have no number; actives 0.63% (n = 310,000); active = well fitted inhibition curve with a large enough effect; inconclusive = small, poorly fitted or top-dose-only effect; inactive = no such curve, though single readings can be large or run the other way; tested in A549 cells; note: nearly all actives have a fitted effect of over 35% in size; inactives centre near -10
# An asterisk follows results filed as active; i = inactive; ? = inconclusive; nt = not tested or not shown; & = joins results of further samples; [ ] = another dose, or the depositor's remark. % is set by controls: 0 for no effect and ±100 for the full control effect; potency is the fitted concentration of half-maximal effect. Compounds were not picked by outcome. About 0.88% of those tested had a hit in this group.
SMILES,VACV Venus inh,Vaccinia mCherry
O=C(Nc1ccc(Cl)cc1)N1CCN(C(=O)C2CCCO2)CC1 (centres undefined),-5%,-5%
O=C(CCC(=O)NNc1nc2ccccc2c2nc(-c3ccccc3)nn12)NCCCN1CCOCC1,0%,-12%
CNCCCC1Sc2ccccc2Oc2ccccc21 (centres undefined),-30%,?
COc1ccc(C(=O)CN2C(=O)NC3(CCCc4ccccc43)C2=O)cc1 (centres undefined),-18%,-2%
Cc1cccc(-c2nc(CSc3nncn4c3cc3oc(C)cc34)c(C)o2)c1,-3%,-7%
CC(C)NC(C(=O)Nc1cc(Cl)cc(Cl)c1)c1ccccc1 (centres undefined),-25%,nt
Cc1nc2cc(NC(=O)N3CCCC3)ccc2n1C,-1%,i
COc1ccccc1C(=O)Nc1nnc(CCc2ccccc2)s1,-26%,-4%
COc1ccc(-c2nc(C(=O)Nc3ccc(C(C)=O)cc3)nn2-c2cccc(Cl)c2)cc1,-17%,i
N#Cc1nc(Cc2ccccc2)oc1N1CCN(c2ccccc2)CC1,-14%,i
CCOC(=O)c1ccc(COC(=O)c2nonc2N)cc1,-3%,-1%
Cc1occc1-c1nc(-c2ccccn2)no1,-8%,?
CC1(c2ccc([N+](=O)[O-])cc2)Nc2ccccc2S1 (centres undefined),-12%,?
O=C(OCc1ccc(Cl)c(Cl)c1)c1cccnc1Cl,-5%,7%
O=C(NCc1ccccn1)[C@@H]1CCCN1C(=O)[C@@H]1CCCN1C(=O)c1ccc(Cl)cc1,6%,38%[activator]
O=C1[C@H]2[C@@H](c3ccccc3)N[C@]3(CCCN(Cc4ccc(F)cc4)C3=O)[C@H]2C(=O)N1Cc1ccccc1,-22%,-7%
COC(=O)C1=NNC2(c3ccc(Cl)cc3)C(=O)N(c3ccc(Cl)cc3)C(=O)C12 (centres undefined),-2%,-15%
CCOC(=O)CC1(CC)Oc2ccccc2N1S(=O)(=O)c1ccc(C)cc1 (centres undefined),-24%,?
CC(=O)c1ccc(Nc2nc(CN)cs2)cc1,2%,15%
COc1cc(-c2ccc(C(F)(F)F)cn2)cc2c1OCCN(S(=O)(=O)C[C@]13CC[C@H](CC1=O)C3(C)C)C2,0%,-6%
CN(CCc1ccccn1)C1CCCN(S(=O)(=O)c2ccccc2Cl)C1 (centres undefined),-1%,-22%
COc1ccc(-n2ncc3c(NCc4cccs4)ncnc32)cc1,-23%,-27%
Cc1cc(Cl)c2oc(C(=O)N3CCOCC3)c(C)c2c1,-11%,i
CC1(Cc2cc(Cl)ccc2C(F)(F)F)C(=O)Nc2ccc(-c3ccc(F)c(Cl)c3)cc21 (centres undefined),-30%,i
CSc1ccc(/C=C/C(=O)OCC(=O)NC2CCCC2)cc1,-9%,-2%

# A second format for part of the listing above:
# Screens in order – VACV Venus inh, Vaccinia mCherry
CCOC(=O)CC1(CC)Oc2ccccc2N1S(=O)(=O)c1ccc(C)cc1 (centres undefined)
    -24%, ?
CC(=O)c1ccc(Nc2nc(CN)cs2)cc1
    2%, 15%

# Next results follow:
SMILES,VACV Venus inh,Vaccinia mCherry
O=C1CCCC2=C1C(c1ccc(O)c(O)c1)c1c(ccc3ncccc13)N2 (centres undefined),-3%,-13%
N#CCC(CNc1ncc(C(F)(F)F)cc1Cl)OC(=O)c1c(F)cccc1F (centres undefined),?,?
Clc1ccccc1Sc1cnc2ccccc2n1,-17%,-19%
O=C(CCc1nnc(CCCc2ccccc2)o1)N1CCCCCC1,-10%,i
O=C(COC(=O)c1ncc(Cl)c(Cl)c1Cl)Nc1cccnc1Cl,-16%,i
Cc1ccc(CNc2ncnc3[nH]ncc23)o1,-19%,-2%
O=C(NCc1ccccc1)c1nc(-c2cccs2)no1,-5%,-10%
O=C(COc1ccc(/C=N/NS(=O)(=O)c2ccccc2)cc1)NCc1ccccc1,-21%,nt
CCOC(=O)c1cnc2ccc(OC(F)(F)F)cc2c1Nc1ccccc1C(=O)O,-8%,9%
O=[N+]([O-])c1ccc2oc(-c3cccc(O)c3)nc2c1,19%,-6%
CCCn1c(=O)c2sccc2n2c(CCCC(=O)NCc3ccco3)nnc12,-1%,-8%
Cc1ccc(CCNC(=O)c2ccc3c(c2)N(Cc2ccc(F)cc2)CCS3)cc1,-16%,-15%
Cc1cc(C)cc(OCc2cc(=O)n3c4c(sc3n2)CCCC4)c1,-10%,-7%
O=C(Cc1cc(=O)[nH]c(=O)[nH]1)N1CCC(Cc2ccccc2)CC1,-15%,i
O=C(O)c1ccc(Sc2ccccn2)c([N+](=O)[O-])c1,-2%,i
CCCCN(CC)C(=O)CCn1c(=O)c2cccn2c2cccnc21,6%,-6%
Cc1nnc(N2C(=O)C(O)=C(C(=O)c3ccco3)C2c2cccc([N+](=O)[O-])c2)s1 (centres undefined),-9%,-1%
CCN(CC(=O)NCc1cccs1)C(=O)C(c1ccccc1)c1ccccc1,22%,i
COc1nc(Nc2cccc(C(F)(F)F)c2)nc(OC)n1,-21%,-5%
COc1cc2c3nnc(-c4ccc(F)cc4)c-3cn(Cc3ccc(C)cc3)c2cc1OC,-28%,-3%
O=C(NC12CC3CC(CC(C3)C1)C2)N1CCN(C(=O)C2CCCO2)CC1 (centres undefined),-15%,-21%
Cc1ccc(S(=O)(=O)N/N=C2\C(=O)C3(C)CCC2C3(C)C)cc1 (centres undefined),-9%,i
CCCc1nc2c(C)cc(-c3nc4ccccc4n3C)cc2n1Cc1ccc(-c2ccccc2C(=O)O)cc1,-27%&-10%,-22%&-14%
CC(C)(C)N(Cc1ccccc1)C(=O)c1ccc(Cl)cc1[N+](=O)[O-],4%,-2%
CCC(C)C(N)C1=NC(C(=O)N[C@@H](CC(C)C)C(=O)N[C@H](CCC(=O)O)C(=O)N[C@H](C(=O)N[C@H]2CCCCNC(=O)[C@H](CC(N)=O)NC(=O)[C@@H](CC(=O)O)NC(=O)[C@H](Cc3cnc[nH]3)NC(=O)[C@@H](Cc3ccccc3)NC(=O)[C@H]([C@@H](C)CC)NC(=O)[C@@H](CCCN)NC2=O)[C@@H](C)CC)CS1 (some centres undefined),-10%,-21%

# Shown with each value named: entries from further up
SMILES: CSc1ccc(/C=C/C(=O)OCC(=O)NC2CCCC2)cc1
  VACV Venus inh = -9%
  Vaccinia mCherry = -2%
SMILES: O=C1CCCC2=C1C(c1ccc(O)c(O)c1)c1c(ccc3ncccc13)N2 (centres undefined)
  VACV Venus inh = -3%
  Vaccinia mCherry = -13%

# More compounds:
SMILES,VACV Venus inh,Vaccinia mCherry
CCOC(=O)Cc1nnc(Nc2cc(C)ccc2C)c2ccccc12,-14%,-11%
CN/S(=N/S(=O)(=O)c1ccccc1)c1ccc(C)cc1 (centres undefined),-15%,nt
Cc1nnc(N(CCC#N)CCC#N)s1,-8%,-11%[1.46 µM]
Cc1ccc(C(=O)Nc2cccc(C(=O)NCc3ccco3)c2)cc1,?,nt
O=C(CSc1cccc2cccnc12)N/N=C/c1ccc(F)cc1,-6%,4%
O=C(CSc1n[nH]c(-c2ccccc2)n1)NCCCc1ccccc1,-17%,-8%
Cc1ccc(N(C)S(=O)(=O)c2cccc(C(=O)NCC(c3cccs3)N3CCOCC3)c2)cc1 (centres undefined),-13%,-6%
O=C(c1ccc2nc(N3CCOCC3)sc2c1)N1CCN(c2ccc(Cl)cc2)CC1,-11%,-4%
O=C(c1cc2cc(Cl)ccc2[nH]1)N1CCN(c2ccc(F)cc2)CC1,-5%,i
COc1cc2c(cc1NC(=O)c1cccc([N+](=O)[O-])c1)oc1ccccc12,-30%,nt
CC(=O)NC(C(=O)c1ccccc1)C(=O)c1ccccc1,-6%,-18%
COc1ccc(C(=O)c2ccc(Br)cc2)c(OC)c1OC,-16%,-14%
Cc1cccc(-n2c(=O)c3c(c4cc(C)ccc4n3C)n(CC(=O)Nc3ccccc3Cl)c2=O)c1,-5%,1%
CCCNC(=O)Cn1nc(C)c2c(C)n(-c3ccccc3)nc2c1=O,-11%,-9%
O=c1cc[nH]c2cc(Cl)ccc12,-6%,-6%
Cc1cc(C)cc(C(=O)N(CCc2ccccc2)C2CC3CCC(C2)N3C)c1 (centres undefined),?,-11%
COc1ccc(C2/C(=C(/O)c3ccccc3)C(=O)C(=O)N2c2ncccn2)cc1OC (centres undefined),-6%,-13%
Cc1sc2ncn(CC(=O)N3CCN(c4ccc(Cl)cc4)CC3)c(=O)c2c1S(=O)(=O)N1CCN(c2ncccn2)CC1,-21%,?
COc1ccccc1CC(=O)NN1C(=O)c2ccccc2C1=O,-12%,-18%
CCCCC(=O)Nc1cccc(-c2nn3c(C)nnc3s2)c1,-11%,i
COc1ccc(Cl)cc1NC(=O)C/C(C)=N/NC(=O)Cc1ccccc1,-7%,-2%
O=C(CN(C(=O)c1ccc(Cl)cc1)C1CCCCC1)Nc1ccc(Cl)c([N+](=O)[O-])c1,-11%,i
CCN(Cc1ccccc1)C(=O)COC(=O)CNS(=O)(=O)c1ccc(C)cc1,-8%,-11%
Cc1cccc(C)c1NC(=O)C(c1ccc(C(F)(F)F)cc1)n1c(=O)c(-c2ccccc2)nc2ccccc21 (centres undefined),-6%,-29%
Cc1ccc(CNC(=O)CSc2ncc3c(n2)-c2ccc(Cl)cc2N(Cc2ccccc2)S3(=O)=O)cc1,3%,-16%

# Compound profiles (already shown). Screens in order: VACV Venus inh, Vaccinia mCherry
# `Cc1ccc(CNC(=O)CSc2ncc3c(n2)-c2ccc(Cl)cc2N(Cc2ccccc2)S3(=O)=O)cc1` across the screens: 3%, -16%
# `COc1ccccc1CC(=O)NN1C(=O)c2ccccc2C1=O` across the screens: -12%, -18%
# `Cc1nnc(N(CCC#N)CCC#N)s1` across the screens: -8%, -11%[1.46 µM]
# `CN/S(=N/S(=O)(=O)c1ccccc1)c1ccc(C)cc1` (centres undefined) across the screens: -15%, nt

# (further entries)
smiles	VACV Venus inh	Vaccinia mCherry
CCc1ccc(OCC(=O)N2CCN(c3ccccn3)CC2)c(Br)c1	-16%	i
O=C(NNC(=O)c1ccccc1-n1cccc1)c1cccc(Cl)c1	-9%	nt
Cc1onc(-c2ccccc2)c1C(=O)N/N=C/c1cc(Br)c(Br)o1	0%	i
COc1cccc(C2=C(C(C)=O)Sc3nnc(C4CCCCC4)n3N2C(C)=O)c1	?	?
CC(C)COc1nc2ccccc2nc1C(C#N)C(=O)NC1CCCCC1 (centres undefined)	1%	nt
CC(C)(C)c1csc(NNC(=O)c2ccc(Br)cc2)n1	?	?
Cc1cc(C)nc(NS(=O)(=O)c2ccc(N3C(=O)C4C5C=CC(C5)C4C3=O)cc2)n1 (centres undefined)	0%	-9%
COc1ccc(S(=O)(=O)NC(C)C(=O)Nc2cccc([N+](=O)[O-])c2)cc1 (centres undefined)	-9%	-23%
COc1cc2c(cc1OC)C(c1cccs1)NCC2 (centres undefined)	16%	nt
COc1ccc(Cn2cc(CN3CC(N4CCCCC4)CS3(=O)=O)nn2)cc1 (centres undefined)	-12%	-9%
COc1ccc(CCN(C)Cc2cc(-c3cncnc3)ccc2O)cc1OC	1%	-6%
COc1cccc(-c2onc3ccc(C4(C)OCCO4)cc23)c1	-14%	-11%
O=C(CC1Sc2ccccc2NC1=O)Nc1cccc(C(=O)O)c1 (centres undefined)	-3%	-14%
Cc1[nH]c2ccccc2c1C(=O)/C=C/c1ccccc1Cl	?	i
N/C(=N\c1nc2c(c(=O)[nH]1)CCCC2)Nc1ccccc1	-5%	-9%
CCc1cccc(N2C(=O)CSC23C(=O)N(Cc2ccccc2F)c2ccccc23)c1 (centres undefined)	-8%	-22%
CCC(=O)c1ccc(OCC(=O)N2CCN(c3ncccn3)CC2)cc1	-10%	-12%
CC(C#N)(NC(=O)COC(=O)c1ccccc1NCCO)C1CC1 (centres undefined)	-14%	-12%
Cc1nc(-c2cccc(S(=O)(=O)N3CCCC(C)C3)c2)cs1 (centres undefined)	-16%	nt
COc1ccc(-n2nc(C(=O)N3CCCCC3C)c3c4ccccc4n(C)c3c2=O)cc1Cl (centres undefined)	-1%	2%

smiles	VACV Venus inh	Vaccinia mCherry
O=C1CC(c2ccco2)CC(O)=C1C=NCCN1CCN(C(=S)Nc2ccccc2)CC1 (centres undefined)	-6%	i
CCOc1ccc(N(C)C(=O)C2CCN(S(=O)(=O)c3ccc4c(c3)CCCN4C(C)=O)CC2)cc1	-24%	-16%
CCC(Cc1ccccc1)NS(=O)(=O)c1c(C)nc2sccn2c1=O (centres undefined)	-24%	-10%
CC(C)OP(=O)(OC(C)C)C(O)c1cccnc1 (centres undefined)	0%	-7%
CN=C1CC(SC)=C1c1ccc(C)cc1	-12%	-18%
CCCCC(=O)c1ccc(O)cc1O	-20%	-2%
N#CC1=C(N)OC2=C(C(=O)CCC2)C1C1C=CCCC1 (centres undefined)	-11%	nt
S=C(NCCCN1CCOCC1)Nc1ccc(Cl)cc1Cl	-11%	-1%
Cc1nc(NCCc2ccc(S(N)(=O)=O)cc2)c2c(C)c(C)sc2n1	?	?
O=C(N/N=C/c1ccc(N2CCOCC2)cc1)C1CC1	-16%	i
COc1ccc(N2C(=O)C3C4C=CC(C5CC45)C3C2=O)c([N+](=O)[O-])c1 (centres undefined)	-19%	nt
